# ClpP mod = qHTS Assay for Activators of ClpP | purified B. subtilis ClpP, FRET peptide cleavage, 20 min | hit rate 1.9% among 340,000 | ATP-dependent Clp protease proteolytic subunit (Bacillus subtilis (strain 168)), P80244 | AID 651965, 2013 | Potency, µM (doses to about 57.5 µM), inactives show at the top dose activity change, negative = active; active = well fitted falling curve with a large enough effect; inconclusive = small, poorly fitted or top-dose-only effect; inactive = no such curve, though single readings can be large or run the other way; further: potency means the concentration at half of the fitted maximal effect; the source files actives as falling curves though it sought activators and does not explain the sign; nearly all actives have a fitted effect of over 65% in size; many hits overshoot -100%
# Target sequence (P80244 whole entry, looked up): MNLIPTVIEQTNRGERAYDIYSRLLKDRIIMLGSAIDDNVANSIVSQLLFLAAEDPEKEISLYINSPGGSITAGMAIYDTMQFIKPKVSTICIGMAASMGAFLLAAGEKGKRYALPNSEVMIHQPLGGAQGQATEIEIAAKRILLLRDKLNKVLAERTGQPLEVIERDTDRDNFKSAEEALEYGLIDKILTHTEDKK
#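 ClpP 10 microg/mL final, pH 8 Tris/KCl buffer with BSA, glycerol, Tween-20; compound pinned in; FRET-FV substrate; RT 20 min; Ex320/Em430; ΔFRET vs ADEP 5.8 microM, DMSO, no enzyme.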
# PINK1 expr mod = A Quantitative High throughput Screen to Identify Chemical Modulators of PINK1 Expression | PINK1 immunofluorescence, high-content cytometry, 24 h | Potency, µM (series often up to 76.6 µM), for inactives: at the highest dose activation (PINK1 increase), most hits filed as activators | hit rate 0.2% among 410,000 | AID 624263, 2012; active = well fitted activation curve with a large enough effect; inconclusive = small, poorly fitted or top-dose-only effect; inactive = flat fitted curve, though single readings scatter; cell line not stated here;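 further: potency means the concentration at half of the fitted maximal effect; % of control where 0% means no effect; nearly all actives have a fitted effect of over 65% in size; a mitochondrial uncoupler was the plate control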
#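 PINK1 protein level read as immunofluorescence by microplate cytometer in a fixed, stained stable cell line after 24 h exposure to five compound concentrations, with CCCP as control.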
# gsp antag = qHTS for Antagonists of gsp, the Etiologic Mutation Responsible for Fibrous Dysplasia/McCune-Albright Syndrome: qHTS | hit rate 0.4% among 340,000 | Potency, µM (doses to about 76.9 µM), inactives show at the highest dose activity change, negative = inhibition, usual class: inhibitors | gsp-mutant cells, cAMP HTRF, 30 min; control for the full effect not named in the record; active = falling curve of any shape with a large fitted effect; inconclusive = falling curve, mostly with a smaller effect; inactive = flat or rising curve; cell line not stated here;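 further: intracellular cAMP measured with PDE inhibitor Ro 20-1724 present during compound exposure; potency means the concentration at half of the fitted maximal effect; on the % scale 0 is the no-effect control and ±100 the full control effect; nearly all actives have a fitted effect of over 65% in size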
#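 Cells, 2000/well, grown 16–24 h in DMEM 10% FBS with 0.5 mg/ml G418, then compounds plus […] (300 uM addition stock), 30 min at 37C. cAMP read by HTRF (cAMP-d2 and anti-cAMP antibody-K in lysis buffer) after 30 min RT.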
# gsp ag = qHTS for Agonist of gsp, the Etiologic Mutation Responsible for Fibrous Dysplasia/McCune-Albright Syndrome: qHTS; hit rate 0.13% among 340,000; gsp mutant cells, cAMP HTRF, 30 min; control for the full effect not named in the record; AID 624287, 2012; Potency, µM (titrated, usually from 76.9 µM), inactives show top-dose activation (cAMP increase), hits mostly activators; active = well fitted activation curve with a large enough effect; inconclusive = small, poorly fitted or top-dose-only effect, or another doubt; inactive = no such curve, though single readings can be large or run the other way; cell line not stated here;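 further: phosphodiesterase inhibitor Ro 20-1724 added with compounds to block cAMP breakdown; potency means the concentration at half of the fitted maximal effect; nearly all actives have a fitted effect of over 60% in size; about a fifth of the inactives were tested at one dose only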
#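 Cells in DMEM/10% FBS with G418 were pretreated with compounds in DMSO plus […] (300 uM stock) for 30 min at 37C. cAMP was measured by HTRF (cAMP-d2 plus anti-cAMP antibody-K) after 30 min at room temperature.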
# D2 ag = Beta-Arrestin HTS for Positive Allosteric Modulators of the Human D2 Dopamine Receptor: Agonists | activation, % (test concentration not listed) | D(2) dopamine receptor (Homo sapiens), P14416 | hit rate 0.084% among 360,000 | DiscoveRx PathHunter D2 beta-arrestin, luminescence, 90 min; 100% = 57 uM dopamine signal; in the data active = activation above about 40%; inconclusive = about 15% to 40%; inactive = below about 15%; further: compound concentration not given in the record; the text of the record calls up to 30% inactive
# Target sequence (P14416 whole entry, looked up): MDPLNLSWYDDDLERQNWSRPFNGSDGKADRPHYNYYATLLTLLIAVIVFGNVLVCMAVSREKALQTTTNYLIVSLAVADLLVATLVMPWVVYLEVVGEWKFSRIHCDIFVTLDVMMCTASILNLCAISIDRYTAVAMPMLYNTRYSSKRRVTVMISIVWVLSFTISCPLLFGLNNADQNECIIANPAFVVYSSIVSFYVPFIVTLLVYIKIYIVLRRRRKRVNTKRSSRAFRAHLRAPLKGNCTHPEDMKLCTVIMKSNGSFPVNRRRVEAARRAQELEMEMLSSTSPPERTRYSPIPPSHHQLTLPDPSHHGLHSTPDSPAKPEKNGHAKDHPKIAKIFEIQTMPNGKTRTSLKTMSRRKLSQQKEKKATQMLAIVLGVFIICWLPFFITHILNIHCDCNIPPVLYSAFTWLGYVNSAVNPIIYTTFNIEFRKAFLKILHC
#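 Agonist mode: compounds alone added to overnight-plated D2 PathHunter cells for 90 min at 37 C, with 57 uM final dopamine (EC100) defining full response. Beta-arrestin recruitment detected by chemiluminescent reagent, read after 1 h at ambient temperature.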
# Sfp inh = qHTS Assay for Inhibitors of Bacillus subtilis Sfp phosphopantetheinyl transferase (PPTase); hit rate 3.5% among 310,000; Biochemical Sfp PPTase activity, qHTS; Potency, µM, inactives show max response, negative = inhibition, hits mostly inhibitors; AID 1490, 2009; 4'-phosphopantetheinyl transferase ffp (Bacillus subtilis), Q9F4F7; active means well fitted inhibition curve with a large enough effect; inconclusive means small, poorly fitted or top-dose-only effect, or another doubt; inactive means no such curve, though single readings can be large or run the other way;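 further: the enzyme is Sfp with the accession as filed and its product quenches rhodamine fluorescence; potency means the concentration at half of the fitted maximal effect; 0% = enzyme reaction without inhibitor and -100% = no enzyme wells; top concentration of the series not given in the record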
#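 Sfp 15 nM + cpd, 15 min RT; start w/ rhodamine-CoA 5 uM, BHQ-2-YbbR 12.5 uM (final); 50 mM Hepes pH 7.6, 10 mM MgCl2, 0.01% NP-40, 0.01% BSA; read 525/598 nm at 0 and 30 min.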
# Menin-MLL FL inh = qHTS Assay for Inhibitors Targeting the Menin-MLL Interaction in MLL Related Leukemias: Competition With Fluorescein Labeled MLL-derived Peptide; Fluorescence polarization, fluorescein-MLL peptide displacement from menin; FP activity change, % at 61.4 µM; 290,000 tested, under 10 active; inconclusive = falling polarisation curve, or a change in total fluorescence; inactive = total fluorescence flat and polarisation flat or rising; no compound was filed as active; the % refers to the polarisation; negative = inhibition;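 further: % of control where 0% means no effect; inhibitors lower the polarisation; unlabelled MLL peptide was the positive control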
# Active calls of the source: *; u = inconclusive; x = not tested or not shown; & = joins results of further samples; [ ] = dose if it differs, or a comment.
item	compound	ClpP mod	PINK1 expr mod	gsp antag	gsp ag
1	Cc1cc(=O)n2nc(N3CCCC(C(=O)NCc4ccccc4C)C3)sc2n1 (centres undefined)	-0.4%	0.6%	-5.1%	-46.1%[inhibitor]
2	CCOc1c(Br)cc(C2CC(=O)Nc3cc(OC)c(OC)cc32)cc1OC (centres undefined)	-0.5%	3.4%	-0.5%	-2.0%[15.4 µM]
3	Cc1c(C(=O)O)oc2ccc(S(=O)(=O)N3CC(C)CC(C)C3)cc12 (centres undefined)	1.5%	2.9%	-2.3%	14.1%
4	COc1cc(CCC(=O)Nc2ccc(S(=O)(=O)N3CCCC3)cc2)cc(OC)c1OC	0.1%	2.4%	-10.1%	31.6%
5	COCC1CCN(C(=O)c2ccc3oc(CCCc4ccccc4)nc3c2)C1 (centres undefined)	-0.1%	5.4%	12.0%	1.6%
6	CC1CCN(C(=O)c2ccc(S(=O)(=O)N3CCCC3)cc2)CC1	1.0%	0.2%	-0.1%	0.1%
7	CCCCC(Br)C(=O)Nc1ccc(S(=O)(=O)Nc2cc(C)nc(C)n2)cc1 (centres undefined)	x	1.8%	-7.0%	9.6%[15.4 µM]
8	Cc1ccccc1-c1nc2cc(Cl)ccc2c(=O)o1	0.6%	1.8%	-1.0%	12.0%
9	CCOc1ccc(NC(=O)CSc2nnc(C)n2C2CC2)cc1S(=O)(=O)N1CCCC1	25.1µM*	-1.7%	-0.4%	9.1%[15.4 µM]
10	Cc1oc(C(C)(C)C)cc1C(=O)N1CCN(c2ncccc2C(F)(F)F)CC1	0.4%	12.1%	-7.6%	-2.5%[15.4 µM]
11	COc1ccc2nc(SC(C)C(=O)NC3(C#N)CCCCC3)[nH]c2c1 (centres undefined)	-1.2%	1.3%	-21.6%	11.2%
12	COCCNC(=O)C1(C)CCCN(Cc2cc(C)ccc2C)C1 (centres undefined)	0.4%	1.1%	x	x
13	N#Cc1cc2c(=O)n3ccccc3nc2n(Cc2ccco2)c1=NC(=O)c1ccco1	-3.6%	4.5%	1.7%	-1.9%[15.4 µM]
14	Cc1cc(C)c2cc(C#N)c(NCCCNC(=O)c3ccncc3)nc2c1	3.7%	5.3%	x	u
15	CC(C)(C)OC(=O)CNC(=O)c1nc[nH]c1C(=O)N1CCNCC1	-2.2%	1.3%	14.8%	-21.8%

item	D2 ag	Sfp inh	Menin-MLL FL inh
1	-8.2	13.4%	2.3
2	2.7	4.7%	-0.6
3	-4.8	10.8%	5.4
4	3.1	x	x
5	-1.5	-2.9%	x
6	-0.2	x	x
7	-6.3	-17.4%	x
8	3.9	2.5%	-3.1
9	1.8	x	x
10	-1.2	-8.9%	2.2
11	-3.0	x	x
12	-1.1	x	x
13	-4.9	39.8µM*	u
14	0.5	x	x
15	-3.9	x	x

# (cont.)
item	compound	ClpP mod	PINK1 expr mod	gsp antag	gsp ag
16	O=C(Nc1nccs1)C(=O)c1c[nH]c2ccccc12	-0.3%	-0.6%	8.7%	-57.6%[inhibitor]
17	Cc1sc2nc(CN3CCOCC3)[nH]c(=S)c2c1C	1.4%	-1.3%	-2.4%	u
18	C=CCN(CC=C)S(=O)(=O)c1ccc(NC(=S)NC(=O)c2ccc(-c3ccccc3)cc2)cc1	-7.6%	-2.4%	1.6%	44.7%
19	COc1ccc(S(=O)(=O)N2CCOCC2)cc1NC(=O)c1cc2ccccc2o1	x	1.3%	-23.7%	16.8%[15.4 µM]
20	CC(=O)N/C(=C\c1ccc(F)cc1)C(=O)N(C)C	0.8%	0.1%	16.9%	-2.0%
21	COc1cc(OC)cc(-c2c(C#Cc3ccsc3)c3cc(-c4ccccc4OC)ccc3n2C)c1	3.6%	1.8%	6.4%	-15.4%
22	Cc1cc(CNC(=O)COc2ccc(F)cc2F)c2ccccc2n1	x	1.7%	-5.0%	-1.0%[15.4 µM]
23	Cc1c(C(=O)O)sc2nc3n(c(=O)c12)CCC(C)CC3 (centres undefined)	0.4%	2.6%[38.3 µM]	-18.1%	-1.9%
24	CCn1nc(NS(=O)(=O)c2ccc(F)cc2)c2cc3cccc(C)c3nc21	0.8%	0.0%	-3.0%	16.3%
25	O=c1oc2ccccc2cc1-c1nc2c(s1)CCc1ccccc1-2	-2.5%&-3.7%	0.9%&3.5%	10.5%	u
26	Cc1onc(-c2c(F)cccc2Cl)c1C(=O)N(C)C1CCCCC1	0.2%	-0.6%	-12.6%	-9.2%
27	CC(NC(=O)c1ccccc1NC(=O)c1ccncc1)c1ccccc1 (centres undefined)	x	-0.6%	9.3%	u
28	O=C1c2ccccc2C(=O)c2c1cccc2N(CCO)CCO	x	0.2%	u	u
29	CCC1=Nc2cc(C(=O)O)ccc2Sc2ccccc21	-3.4%	2.1%	-1.2%	20.9%
30	CCOc1ccccc1N(CC(=O)NCc1ccc(OC)cc1)S(C)(=O)=O	-2.8%	-0.2%[38.3 µM]	-6.6%	-1.0%

item	D2 ag	Sfp inh	Menin-MLL FL inh
16	-4.4	-1.8%	3.4
17	-17.7	8.91µM*	-2.8
18	-3.0	u	3.9
19	-0.7	x	x
20	-3.5	7.2%	0.3
21	-0.7	x	x
22	2.4	16.4%	-3.2
23	0.0	30.3%[activator]	4.3
24	-4.7	15.7%	x
25	10.5	7.94µM*	5.9
26	-2.0	9.5%	x
27	-4.6	10.5%	19.3
28	-4.8	21.1%	u
29	0.4	-5.1%	1.0
30	2.7	-7.5%	0.4

# Part of the list above, with each value named:
[24] CCn1nc(NS(=O)(=O)c2ccc(F)cc2)c2cc3cccc(C)c3nc21
  ClpP mod = 0.8%	PINK1 expr mod = 0.0%	gsp antag = -3.0%	gsp ag = 16.3%	D2 ag = -4.7	Sfp inh = 15.7%	Menin-MLL FL inh = x
[25] O=c1oc2ccccc2cc1-c1nc2c(s1)CCc1ccccc1-2
  ClpP mod = -2.5%&-3.7%	PINK1 expr mod = 0.9%&3.5%	gsp antag = 10.5%	gsp ag = u	D2 ag = 10.5	Sfp inh = 7.94µM*	Menin-MLL FL inh = 5.9
[26] Cc1onc(-c2c(F)cccc2Cl)c1C(=O)N(C)C1CCCCC1
  ClpP mod = 0.2%	PINK1 expr mod = -0.6%	gsp antag = -12.6%	gsp ag = -9.2%	D2 ag = -2.0	Sfp inh = 9.5%	Menin-MLL FL inh = x
[27] CC(NC(=O)c1ccccc1NC(=O)c1ccncc1)c1ccccc1 (centres undefined)
  ClpP mod = x	PINK1 expr mod = -0.6%	gsp antag = 9.3%	gsp ag = u	D2 ag = -4.6	Sfp inh = 10.5%	Menin-MLL FL inh = 19.3

# Next results
item	compound	ClpP mod	PINK1 expr mod	gsp antag	gsp ag
31	COc1cc(C)c(Br)cc1S(=O)(=O)NCc1cccs1	-1.1%	5.2%	-13.8%	-17.4%
32	O=C(Cc1ccc(F)cc1)Nc1ccccc1Sc1ccccc1	-2.1%	8.5%	-12.7%	17.1%
33	O=C(CN1CCN(CC(=O)Nc2ccc3c(c2)OCO3)CC1)Nc1ccc(F)cc1	1.5%	1.0%	-6.6%	-10.0%
34	CC(C)C[C@@H](CNC(=O)OC(C)(C)C)NC(=O)c1nc[nH]c1C(=O)N[C@@H](CC(C)C)C(=O)CNC[C@H](CC(C)C)NC(=O)c1nc[nH]c1C(=O)N[C@@H](Cc1c[nH]c2ccccc12)C(=O)OC(C)(C)C	-28.0%	1.6%	4.8%	x
35	Cn1nc(C(C)(C)C)cc1NC(=O)Nc1ccc(F)cc1F	0.2%	-0.3%	15.8%	0.0%[15.4 µM]
36	O=C(Nc1cccc(F)c1)N1C2CCC1CC(O)(c1cccnc1)C2 (centres undefined)	-0.4%	2.3%	0.3%	13.5%[15.4 µM]
37	O=C(COC(=O)COc1ccc(Cl)cc1)Nc1ccc2c(c1)OCCO2	0.0%	3.1%	10.6%	u
38	CCOc1ccc(C(NC(C)=O)c2ccc(OC)c(OC)c2)cc1 (centres undefined)	x	3.4%	4.2%	-21.0%[15.4 µM]
39	O=C(Nc1ccc2oc(-c3ccncc3)nc2c1)c1cccs1	u	1.3%	1.0%	28.1%
40	O=C(CCCN1Cc2ccccc2C1)c1ccc(F)cc1	-14.2%	2.3%[38.3 µM]	0.0%	-2.1%
41	Cn1c(CNC(=O)C(Cc2ccccc2)NC(=O)c2ccccc2F)cc(=O)n(C)c1=O (centres undefined)	-1.4%	0.3%	4.4%	u
42	Clc1ccccc1/C=N/Nc1cc(N2CCOCC2)ncn1	-18.3%	3.5%	-2.5%	7.8%[15.4 µM]
43	CN(C(=O)COc1ccc(Oc2ccccc2)cc1)C1CCS(=O)(=O)C1 (centres undefined)	-4.0%	1.0%	11.1%	3.8%[15.4 µM]
44	CCCN1C(=O)/C(=N\OCC(=O)Nc2ccc(C(C)C)cc2)c2ccccc21	0.0%	2.6%	-3.6%	-25.3%

item	D2 ag	Sfp inh	Menin-MLL FL inh
31	-0.4	8.7%	0.3
32	0.2	11.0%	2.8
33	-2.9	-1.7%	2.1
34	-0.6	x	x
35	0.6	-13.5%	3.4
36	1.5	18.8%	6.4
37	1.3	x	x
38	-2.4	16.0%	3.1
39	-0.9	-20.9%	4.2
40	-2.8	3.0%	-4.7
41	-3.2	22.5%	-2.5
42	4.6	11.5%	-11.2
43	4.8	12.7%	x
44	-4.3	13.2%	-1.9

# Assay outcomes as filed in PubChem BioAssay.
